Bioassay records: PubChem BioAssay, ICCB-Longwood Screening Facility, Harvard Medical School
KSHV LANA nucl = LANA-nucleosome interaction inhibition | AID 720717 | z-score (test concentration not listed) | hit rate 0.3% among 51,000 | FITC-LANA1-23 / chicken nucleosome fluorescence polarization; stronger effect = lower value;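 active = both repeat wells score below -2 in polarization z-score versus plate sample wells, excluding overly bright wells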;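 note: 100 nL library stock added to about 30 µL; numbers are from one replicate; some results filed as inactive read as strong as hits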
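Assay system: FITC-LANA peptide and chicken nucleosomes; input: 240 nM purified chicken nucleosomes (480 nM peptide binding sites), final; also added: 50 nM FITC-LANA1-23 probe; medium: TEN-BT buffer, pH 7.5; doses: pin-transferred compound, 100 nL; times: 10–45 min, room temperature; technique: fluorescence polarization; replication: duplicates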
Ab BasE inh = blocks the Acinetobacter baumannii siderophore enzyme BasE; purified BasE, fluorescence polarization binding displacement; inhibition, % (test concentration not listed); hit rate 0.1% among 84,000; AID 485350;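 active = both replicates above 25% with normal brightness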;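 note: 0% = negative plate control signal and 100% = positive plate control signal; stock transfer was 100 nL into about 30 µL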
Numbers without * were called inactive; x = not tested or not shown; & = joins results of further samples. A portion of the library, so the mix of outcomes need not match the whole.

The line under a structure holds: KSHV LANA nucl | Ab BasE inh
N=c1oc2ccc(Cl)cc2cc1C(N)=O
  0.56 | 0.8
Cn1c(NC(=O)Cc2ccc(F)cc2)nc2ccccc21
  -0.19 | 0.9
CCCNC(=O)C1CCN(S(=O)(=O)c2ccccc2)CC1
  -1.4 | 1.1
O=C(NCCN1CCOCC1)c1ccncc1
  -0.43 | 0.6
Cc1ccc2cnn(CC(=O)NCCN3CCOCC3)c2c1
  0.21 | 1.0
COc1ccc(N(C(C)C(=O)N=Nc2c(O)[nH]c3ccccc23)S(C)(=O)=O)cc1 (stereo not given)
  -1.1 | 0.7
CCc1ccc(C(=O)Nn2cnc3ccccc3c2=O)cc1
  -0.23 | -4.0
CCN(CC)C(=O)Oc1nnc(SC(C)C)n1-c1ccc(Cl)c(Cl)c1
  x | 1.6
O=C(CCS(=O)(=O)c1ccc(F)cc1)N1CCCC1c1nc2ccccc2s1 (stereo not given)
  x | 0.3
Cc1cccc(CC(=O)N2CCN(c3ccccc3)CC2)c1
  1.1 | -1.1
CC1CCCCN1C(=O)Nc1cn(C)c(=O)c2ccccc12 (stereo not given)
  0.4 | -0.2
COc1ccccc1Nc1cc(C(=O)NCCN2CCOCC2)c2ccccc2n1
  1.1 | 0.3
CCc1ccc(Nc2cc(=O)oc3ccccc23)cc1
  x | -7.6
NNc1ccc2nnc(C(F)(F)F)n2n1
  0.22 | 1.5
O=C(CCc1c(-c2ccc(F)cc2)[nH]c2ccc(F)cc12)N1CCN(C2CCS(=O)(=O)C2)CC1 (stereo not given)
  x | 3.4
OCCNC(=S)Nc1ccc(Cl)cc1
  -0.23 | 0.8
CCc1ccccc1Nc1nn2c(=O)c3ccc(C(=O)NCC4CCCO4)cc3nc2s1 (stereo not given)
  -0.88 | -5.8
CCNc1nc(OC)nc(N2CCN(c3ccc(F)cc3)CC2)n1
  -0.071 | -2.1
COC(=O)c1cccc(NS(=O)(=O)c2cccs2)c1
  0.18 | 0.3
CCC(c1nnnn1CCOC)N1CCN(c2cccc(C(F)(F)F)c2)CC1 (stereo not given)
  1.5 | -4.9
Cc1cc2c(cc(C(=O)NCCCN3CCOCC3)n2Cc2ccc(Cl)cc2)o1
  0.28 | -5.6
O=C(CSc1nnc2c(n1)[nH]c1ccccc12)Nc1ccccc1
  -0.15 | -2.9
CCn1c2ccccc2c2cc(NC(=O)c3ccccc3C)ccc21
  x | 1.3
Cc1ccc(C2=NN(C(=O)CSc3ccccn3)C(c3ccco3)C2)o1 (stereo not given)
  x | 1.9
O=C(O)CCC(=O)NC1CCCCCCC1
  -1.3 | 0.5
COC(=O)c1cc(OC(=O)c2cc(OC)cc(OC)c2)cc(C(=O)OC)c1
  x | -4.8
CCc1ccc(OCCSc2nc(-c3ccco3)nc3cc(=O)[nH]n23)cc1
  -1 | 1.5
CC1=C(C)C/S(=N\S(=O)(=O)c2ccc(Cl)cc2)N(S(=O)(=O)c2ccc(Cl)cc2)C1 (stereo not given)
  -0.36 | 2.3
CCn1nnc(NC(=O)C(C)(c2ccccc2)c2ccccc2)n1
  0.13 | -0.1
O=C(NC1CCN(Cc2ccccc2)CC1)c1cc(-c2ccccc2)n[nH]1
  x | -8.5
CSc1nc2cc(C)nn2c(-c2ccc(C(C)(C)C)cc2)c1C#N
  x | 1.3
O=C(O)CCC(=O)Nc1ccc2c(c1)oc1ccccc12
  -0.029 | -0.7
N#Cc1c(-c2cccs2)cc(-c2cccs2)nc1SCc1cccnc1
  0.75 | 2.7
CN(C)S(=O)(=O)c1cccc(C(=O)C2=C3SC=C(c4ccccc4)N3CC2)c1
  x | 11
CC(C)(O)C#Cc1ccccc1C(=O)NC(CC(N)=O)C(=O)O (stereo not given)
  0.32 | 2.7
Cc1cc2c(cc1C)CN(c1cccc(C(=O)N/N=C/c3ccco3)c1)C2
  -0.3 | -3.2
COc1cc2c(cc1OC)C(c1cccs1)N(C(=O)c1cccs1)CC2 (stereo not given)
  x | 2.1
CC(C)NC(=O)Cn1nnc(-c2ccc(Cl)cc2)n1
  -0.86 | 2.2
O=C(Cc1cccs1)NC1CCCCCC1
  1.7 | -0.6
O=C(CO)Nc1cccc(NC(=O)CO)n1
  -0.089 | -0.6
Nc1cc(=O)[nH]c(Nc2ccc(Oc3ccccc3)cc2)n1
  -0.81 | -1.0
Cc1ccc2c(=O)c(C(=O)c3ccccc3)coc2c1
  x | 1.9
COc1ccccc1NC(=O)/C=C/c1cn(CCC#N)nc1-c1ccc(Cl)cc1
  0.56 | -9.1
O=C1NCC(COc2ccc(Cl)cc2)O1 (stereo not given)
  x | 2.1
O=C(CN1CCOCC1)NN1C(=O)c2cccc3cccc(c23)C1=O
  0.033 | 1.5
CSc1ccc2c(c1)C(N1CCN(C)CC1)Cc1ccccc1S2 (stereo not given)
  -0.2&-0.22 | -3.4
CCOc1ccc(/C=C(\C#N)C(=O)NCc2ccco2)cc1OC
  -0.6 | 0.1
CN(C)c1ccc(NC(=O)CSc2nc3ccccc3cc2C#N)cc1
  0.63 | 3.5
CN(C)Cn1nc(-c2ccccc2)n(-c2ccccc2)c1=S
  x | -1.4
CCCCN(C)C(=O)c1c[nH]c2ccc(S(=O)(=O)Nc3ccc(OCC)cc3)cc2c1=O
  1.2 | -5.6
COc1cc(C(=O)Cc2nccn2C)cc(OC)c1OC
  x | 1.6
CC(C)(C)OC(=O)N1CCN(CCNC(=O)Nc2cc(Cl)cc(Cl)c2)CC1
  -1.2 | 1.6
CN1C=CC=C/C1=C(/C#N)C(=O)Nc1ccc(Cl)cc1
  x | 0.2
Cc1ncc2c(c1OC(=O)c1ccccc1)COC(C)(C)OC2
  x | 1.6
C=CCSc1nc2c(c(=O)[nH]1)C(c1ccccc1)C(C(=O)OCC)=C(N)O2 (stereo not given)
  x | 1.1
CC1Cc2ccccc2N1CC(=O)NCc1ccc2c(c1)OCO2 (stereo not given)
  x | 1.7
CC(C)C(NS(=O)(=O)c1ccc2c(c1)OCCO2)C(=O)OCc1nc2ccsc2c(=O)[nH]1 (stereo not given)
  x | -1.0
CCCn1c(=N)c(C(=O)NC2CCCC2)cc2c(=O)n3ccccc3nc21
  x | 0.3
CCOC(=O)c1cc(-c2ccc(Cl)cc2)[nH]c(=O)c1C#N
  x | 0.6
CCS(=O)(=O)N1CCc2cc(C(=O)COC(=O)c3ccc(NC(=O)CC#N)cc3)ccc21
  x | -6.5

Further structures
The line under a structure holds: KSHV LANA nucl | Ab BasE inh
C=CCSc1nnc(Cn2cnc3ccccc32)n1C
  -0.44 | 3.1
CCCCC/C=C\C/C=C\CCCCCCCC(=O)NCC(=O)O
  -0.44 | -0.1
Cc1cc(C#N)c(C)n1CCCn1ccnc1
  x | 0.0
CCN(CC)CC(=O)Nc1ccccc1-c1nc2ccccc2[nH]c1=O
  0.62 | -0.4
NC(=O)c1nn(CC(=O)N2CCCSc3ccccc32)c(=O)c2ccccc12
  x | 2.0
O=C(c1ccc(S(=O)(=O)NCc2ccco2)cc1)N1CCN(c2ccc(F)cc2)CC1
  x | -0.8
COc1cc(O)c(C(=O)Cc2cc3ccccc3o2)cc1C(C)C
  x | -1.1
COc1cc(NC(=O)C(Sc2nc(C)cc(C)c2C#N)c2ccccc2)c(OC)cc1Cl (stereo not given)
  x | -0.6
CC(=O)NC12CCC3CC(CC(C3)C1)C2
  -0.43 | 5.4
CC1(C)CC(=O)C(Sc2nnc(-c3ccc(O)cc3)n2CC2CCCO2)C(=O)C1 (stereo not given)
  -0.44 | 0.6
CN(C)CCn1c(-c2ccccc2)cc(=S)c2c1CCCC2
  -0.95 | -0.5
COC(=O)C1=CN(C(C)C)C=C(C(=O)OC)C1c1ccc(OC)cc1
  -0.98 | -0.2
O=C(CCS(=O)(=O)c1cc(Br)cc2c1N(C(=O)C1CC1)CC2)N1CCCCC1
  0.14 | 0.3
CC(=O)N1CCc2cc(S(=O)(=O)N3CCc4ccccc4C3CN3C(=O)c4ccccc4C3=O)ccc21 (stereo not given)
  -0.15 | -0.4
COc1ccc(NC(=O)COc2ccc(Cl)c(C)c2)cn1
  x | -0.3
CN(C)S(=O)(=O)c1ccc(NC(=O)Nc2ccccc2)cc1
  0.025 | -10.0
N#CCn1c(=O)c2c(ncn2Cc2ccccc2)n(Cc2ccccc2)c1=O
  x | -2.7
CCNC(=O)Oc1noc2ccc(C)cc12
  -0.46 | 3.0
Cc1cc2c(NC3CCCC3)ncnc2s1
  0.51 | -0.5
COc1ncnc2oc(C)c(C(=O)Nc3cccc(Cl)c3)c12
  1.2 | -0.3
O=C1NC2(CCOc3ccccc32)C(=O)N1CC1NS(=O)(=O)N=C2CCCCCN21 (stereo not given)
  x | -0.5
Cc1nc2ccc(Cl)cc2nc(C)/c1=N\O
  x | 0.8
O=C(COc1ncnc2sc(-c3ccccc3)cc12)N1CCNC1=O
  x | -1.0
C=CCOC(=O)COc1ccc(Oc2ccccc2)cc1
  x | 0.6
Cc1cccc(NC(=O)C2=CC(=O)C3C=CC=CC3O2)c1C (stereo not given)
  0.0035 | -0.5
CCS(=O)(=O)c1ccc2c(c1)N1CCS(=O)(=O)N=C1O2
  x | -4.0
Cc1cc(F)ccc1NC(=O)Cc1ccc(S(=O)(=O)N2CCCC2)s1
  x | -7.6
Cc1ccc(CN)n1C
  x | 1.1
Cc1nn(-c2ccccc2)c2ncc(C(=O)N3CCN(C)CC3)c(Cl)c12
  -0.95 | 1.8
Cc1nn(-c2ccccc2)c(C)c1/C=N/n1cnnc1
  -1.6 | 0.3
Cc1ccc(C)c(OCC(=O)OCn2nnc3ccccc3c2=O)c1
  x | 0.3
O=C(CN1C(=O)CSC1=O)NCc1ccccc1
  -0.45 | 0.6
Cc1onc(-c2c(Cl)cccc2Cl)c1N
  x | 2.0
CN(C)CC(=O)C12CC3CC(CC(C3)C1)C2
  0.52 | 5.3
CC1=CCC(C(=O)O)C(C(=O)O)C1 (stereo not given)
  0.2 | 3.1
COc1ccc(C(=O)N[C@H](C(=O)N2CCN(S(=O)(=O)c3ccc(Cl)cc3)CC2)C(C)C)cc1
  x | 2.2
O=C(CN1C(=O)C2CC=CCC2C1=O)NC1CCCCC1 (stereo not given)
  0.47 | 0.3
CCSc1nnc(NC(=O)/C=C/c2ccc3c(c2)OCCO3)s1
  x | 0.5
CCCn1c(C)cc(/C=C(\C#N)C(=O)Oc2c(C)ccc(C)c2C)c1C
  x | -21
c1ccc(N2CCN(c3cnc4ccccc4n3)CC2)cc1
  -0.049 | x
COc1ccc(CC(=O)N2CC(C)OC(C)C2)cc1 (stereo not given)
  -0.24 | 0.7
N=C1/C(=C\c2cn(CCOc3ccccc3Cl)c3ccccc23)C(=O)N=C2SC=NN12
  -3.4* | -18
CCCNS(=O)(=O)c1ccc(-c2cc(C(F)(F)F)no2)s1
  x | 0.0
C=CCN(CC=C)C(=S)Nc1ccc2c(C)cc(=O)oc2c1
  -1.5 | -0.6
Cc1nnc2sc(-c3cc4ccccc4o3)nn12
  0.55 | 0.9
CC(=O)Nc1ccc(S(=O)(=O)NCc2cc(C)n(-c3ccc(F)cc3)c2C)cc1
  2.3 | -6.8
C=CCS(=O)(=O)c1nc2ccccc2s1
  -0.57 | -0.1
CC1CC(C)CN(C(=O)c2cc3cccnc3n(Cc3ccccc3)c2=O)C1 (stereo not given)
  0.5 | -0.1
OC(CNCc1ccc2c(c1)OCO2)COc1ccc(-c2csnn2)cc1 (stereo not given)
  x | -1.1
O=C(CCn1[nH]c(=O)c2ccccc2c1=O)NCCO
  0.24 | 0.5
O=C(NC(Cc1ccccc1)C(=O)OCc1cnc(-c2ccccc2)o1)c1ccccc1 (stereo not given)
  x | 0.6
Cc1c(CN(C)C)c2c(n1C)C(=O)c1ccc(Br)cc1-2
  -0.014 | 4.5
CC(C)c1ccc(NC(=O)C(c2ccccc2)N(C)C)cc1 (stereo not given)
  0.38 | 2.2
CC(C)n1nccc1N
  0.46 | 0.0
CCn1c(CNC(=O)c2cccs2)nnc1SCC(=O)NO
  0.42 | -0.5
Cc1ccc2c(c1)C(C)(C)C1(C)N(Cc3ccccc3)C(=O)CN21 (stereo not given)
  x | -1.1
O=C(O)CCCN1C(=O)c2cccnc2Sc2ccccc21
  0.39 | -0.7
CC1CCc2cc(F)ccc2N1C(=O)Nc1ccccc1 (stereo not given)
  x | -1.0
Cc1cccc(NC(=O)Cn2nnc(C(=O)NCc3ccc4c(c3)OCO4)c2N)c1C
  -1.3 | 0.1
O=C(CN1CCOCC1)N(c1ccccc1)c1ccc2ccccc2c1
  -0.23 | -0.3
